# A1 inhib – blocks A1 activity; MEF A1-2A-BIM cells, caspase-Glo luminescence, 3 h; percent of clofoctol signal, DMSO as zero; caspase activation, % (concentration not given with the values); 21,000 tested, 0.51% active;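 active = most replicate scores above 10, or exactly half above 10 with mean activity above 10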;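 note: effector caspase 3 and 7 activity cleaving a DEVD luciferin substrate; 50 nL library stock added to about 30 µL; numbers are from one replicate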
# BJeLR viab HTS – compounds reducing viability of BJeLR cells | AID 2275 | 30,000 tested, 0.64% active | viability loss activity score, % (concentration not given with the values) | BJeLR fibroblasts viability, CellTiterGlo ATP luminescence, 48 h; HRASV12, hTERT and SV40 LT/ST transformed; in the data active = viability loss activity score above about 50%; about a fifth of its hits are not listed in these tables;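 note: higher score means fewer live cells and less ATP luminescence; stock transfer was 50 or 100 nL into about 30 µL; 0% = vehicle wells and 100% = a reference killing control; one replicate is shown; the record names a cut of 85%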
# The depositor's hits bear a star; x = not tested or not shown. This is a subset, so the mix of outcomes need not match the whole.
No.	SMILES	A1 inhib	BJeLR viab HTS
1	Cc1c(O)cc(O)c2c1OC(c1ccccc1)CC2=O (stereo not given)	0.3	-5.7
2	COc1ccc(NC(=O)N(C)C[C@@H]2Oc3ccc(NC(=O)Nc4ccc5c(c4)OCO5)cc3C(=O)N([C@@H](C)CO)C[C@@H]2C)cc1	-0.7	3.5
3	COc1ccc(C2(C(=O)NCc3ccco3)CCCC2)cc1OC	x	-0.5
4	COc1ccc(NC(=O)N(C)C[C@@H]2Oc3c(NS(=O)(=O)c4ccccc4)cccc3C(=O)N([C@H](C)CO)C[C@H]2C)cc1	x	-1.1
5	C[C@@H]1CN([C@@H](C)CO)C(=O)c2cc(N(C)C)ccc2O[C@@H]1CN(C)S(=O)(=O)c1cn(C)cn1	0.0	-1.9
6	C[C@H]1CN([C@@H](C)CO)C(=O)c2cc(N(C)C)ccc2O[C@H]1CN(C)S(=O)(=O)c1cccs1	-0.5	1.7
7	Cc1ccccc1NC1SC(=O)N(Cc2ccccc2)C1=O (stereo not given)	-0.3	-0.1
8	COc1ccc(-c2oc3ncn(Cc4ccccc4)c(=N)c3c2-c2ccc(OC)cc2)cc1	-0.2	1.8
9	O=C(CCn1c(SCc2cccc(F)c2)nc2ccccc2c1=O)NCCc1ccccc1	19*	-2.4
10	C[C@H](CO)N1C[C@H](C)[C@H](CN(C)Cc2ccc(Cl)c(Cl)c2)Oc2ccc(NC(=O)Nc3ccc(F)cc3)cc2C1=O	0.1	2.7
11	COc1ccc2[nH]c(C)c(CCNS(=O)(=O)c3c(C)[nH]c(=O)[nH]c3=O)c2c1	-0.7	0.2
12	CN(C)CCOC(c1ccc(Cl)cc1)c1ccccn1 (stereo not given)	-0.4	6.7
13	COc1ccc(NC(=O)Nc2cccc3c2O[C@H](CN(C)C(=O)Nc2ccc(F)cc2)[C@H](C)CN([C@@H](C)CO)C3=O)cc1	x	1.8
14	CNC[C@@H]1Oc2ccc(NC(=O)Cn3cnnn3)cc2C(=O)N([C@@H](C)CO)C[C@@H]1C	-0.3	3.2
15	COC(=O)c1sccc1NC(=O)C1CCCS1 (stereo not given)	-0.1	1.4
16	C[C@H]1CN([C@@H](C)CO)C(=O)c2cccc(NC(=O)C3CC3)c2O[C@@H]1CN(C)S(C)(=O)=O	x	-2.6
17	CCOC(=O)C1CCCn2c1nc1sc3c(c1c2=O)CCCC3 (stereo not given)	0.1	-1.7
18	C[C@H]1CN([C@@H](C)CO)C(=O)c2cc(NC(=O)Nc3ccc4c(c3)OCO4)ccc2O[C@H]1CN(C)Cc1ccc(C(=O)O)cc1	1.5	-1.4
19	COc1ccc(NC(=O)N(C)C[C@@H]2Oc3ccc(NC(=O)CCCCCC(=O)Nc4ccccc4N)cc3C(=O)N([C@@H](C)CO)C[C@@H]2C)cc1	x	-4.8
20	CCC1Sc2ccccc2N(CC(=O)NC2CC2)C1=O (stereo not given)	1.0	4.0
21	CCOC(=O)C1CCN(S(=O)(=O)c2nc3nc(C)cc(C)n3n2)CC1	0.2	-0.6
22	C[C@@H]1CN([C@@H](C)CO)C(=O)c2cc(NC(=O)Cn3cnnn3)ccc2O[C@H]1CN(C)C(=O)NC1CCCCC1	-0.5	1.0
23	c1ccc(NC2CCCCC2)nc1	0.3	4.8
24	Cc1nc2c(-c3ccc(Cl)cc3)c(C(F)(F)F)[nH]n2c(=O)c1Cc1ccccc1	-0.1	11
25	C=C(Oc1cccc(C(=O)O)c1)C(=O)O	-0.7	4.5
26	Cc1ccc(Nc2cc(C(=O)NCC3CCCO3)c3ccccc3n2)cc1C (stereo not given)	-0.6	4.4
27	Cc1ccc2c(c1)C(=O)C1(O)CCN(c3ccccc3)C1=N2 (stereo not given)	-0.2	-1.9
28	COc1ccc(NS(=O)(=O)c2ccc(OCC(F)(F)F)c(C#N)c2OCC(F)(F)F)cc1	0.6	-2.2
29	CCc1cc(C(c2ccc(Cl)cc2)N2CCN(CCO)CC2)c(NC(=O)c2ccccc2)s1 (stereo not given)	-0.2	10
30	C[C@@H]1CN([C@H](C)CO)C(=O)c2cc(NC(=O)CCCN(C)C)ccc2O[C@@H]1CN(C)S(C)(=O)=O	-0.1	0.3
31	C[C@@H]1CN([C@@H](C)CO)C(=O)c2cccc(NC(=O)c3ccncc3)c2O[C@@H]1CN(C)S(=O)(=O)c1ccc(F)cc1	x	7.1
32	C=CCNc1sc(C)nc1C(N)=O	-0.4	-3.1
33	C[C@@H]1CN([C@@H](C)CO)C(=O)c2cc(NS(=O)(=O)c3ccccc3)ccc2O[C@H]1CN(C)Cc1ccc2c(c1)OCO2	-0.2	-0.5
34	COc1ccc(NC(=O)Nc2cccc3c2O[C@@H](CN(C)S(=O)(=O)c2ccccc2)[C@H](C)CN([C@H](C)CO)C3=O)cc1	x	-1.3
35	Cn1cnc([N+](=O)[O-])c1Sc1ncnc2nc[nH]c12	-0.6	88*
36	CCCN(C(=O)CCc1nc(-c2ccccc2F)no1)c1ccccc1C	x	14
37	O=C1N(Cc2ccccc2)c2cccc3cccc(c23)N1Cc1ccccc1	0.9	-4.5
38	C[C@H](CO)N1C[C@H](C)[C@H](CN(C)S(=O)(=O)c2ccccc2)Oc2ccc(NC(=O)CCCN(C)C)cc2C1=O	0.3	1.1
39	COc1ccc(S(=O)(=O)Nc2ccc3c(c2)C(=O)N([C@H](C)CO)C[C@@H](C)[C@H](CN(C)C(=O)NC2CCCCC2)O3)cc1	0.4	-1.4
40	C[C@H](CO)N1C[C@H](C)[C@@H](CN(C)S(=O)(=O)c2cn(C)cn2)Oc2c(NC(=O)Nc3ccc(F)cc3)cccc2C1=O	x	-10
41	C=CCNC(=O)c1cc2ccccc2o1	-3.5	-0.9
42	CN1CCN(c2ccc(CNC(=O)c3ccc4nsnc4c3)cc2)CC1	0.5	0.4
43	C[C@H]1CN([C@@H](C)CO)C(=O)c2cc(NC(=O)Nc3ccc(C(F)(F)F)cc3)ccc2O[C@H]1CN(C)C(=O)Nc1cccc2ccccc12	0.0	2.2
44	COc1ccc(NC(=O)Nc2cccc3c2O[C@@H](CN(C)S(=O)(=O)c2cn(C)cn2)[C@H](C)CN([C@@H](C)CO)C3=O)cc1	x	1.2
45	CC1(C)CCc2cc(-c3ccnc(=S)[nH]3)ccc2O1	-0.9	-3.7
46	C[C@H]1CN([C@@H](C)CO)C(=O)c2cc(NC(=O)CCCN(C)C)ccc2O[C@@H]1CN(C)S(=O)(=O)c1cccs1	0.1	0.0
47	C[C@@H]1CN([C@H](C)CO)C(=O)c2cc(NS(=O)(=O)c3cn(C)cn3)ccc2O[C@@H]1CN(C)C	-0.8	7.0
48	Cc1c(C)c(C)c(S(=O)(=O)NCCCN2CCOCC2)c(C)c1C	1.0	-2.2
49	C[C@H]1CN([C@@H](C)CO)C(=O)c2cccc(NS(=O)(=O)c3ccc(Cl)cc3)c2O[C@H]1CN(C)C(=O)Nc1ccc(F)cc1	x	-2.5
50	Cc1ccc(C)c(N(C)C(=O)CCS(=O)(=O)c2cccc3nonc23)c1	x	4.2
51	CC(C)NC(=O)N(C)C[C@H]1Oc2ccc(NC(=O)C3CCCCC3)cc2C(=O)N([C@H](C)CO)C[C@H]1C	0.2	-5.2
52	COc1ccc(S(=O)(=O)Nc2ccc3c(c2)C(=O)N([C@H](C)CO)C[C@H](C)[C@@H](CN(C)Cc2ccc4c(c2)OCO4)O3)cc1	0.9	-2.7
53	C[C@@H]1CN([C@@H](C)CO)C(=O)c2cccc(NS(=O)(=O)c3ccc(Cl)cc3)c2O[C@H]1CN(C)Cc1ccncc1	x	-0.6
54	O=C(CSc1ccc(Cl)cc1)Nc1cscc1S(=O)(=O)c1ccc(Cl)cc1	3.0	-3.8
55	Cc1ccc(NC(=O)c2ccc(CSc3ccccn3)cc2)c(C)c1	0.8	-3.0
56	C[C@@H]1CN([C@H](C)CO)C(=O)c2cccc(NC(=O)Nc3ccc(F)cc3)c2O[C@H]1CN(C)S(=O)(=O)c1cccs1	x	1.4
57	C[C@@H]1CN([C@H](C)CO)C(=O)c2cc(NC(=O)C3CCCCC3)ccc2O[C@@H]1CN(C)Cc1ccc(Cl)c(Cl)c1	-0.3	-7.5
58	COc1ccc(CN(C)C[C@H]2Oc3c(NS(=O)(=O)c4ccc(F)cc4)cccc3C(=O)N([C@@H](C)CO)C[C@H]2C)cc1	x	-2.0
59	CCCn1c(-c2ccc(S(=O)(=O)N3CCOCC3)cc2)csc1=Nc1ccccc1	-1.1	5.8
60	O=C(C1CC1)N1N=C(C2CCCCC2)CC1(O)C(F)(F)F (stereo not given)	0.3	1.9

# 6 entries already listed, arranged by formula weight, high to low.
No.	SMILES	A1 inhib	BJeLR viab HTS
52	COc1ccc(S(=O)(=O)Nc2ccc3c(c2)C(=O)N([C@H](C)CO)C[C@H](C)[C@@H](CN(C)Cc2ccc4c(c2)OCO4)O3)cc1	0.9	-2.7
44	COc1ccc(NC(=O)Nc2cccc3c2O[C@@H](CN(C)S(=O)(=O)c2cn(C)cn2)[C@H](C)CN([C@@H](C)CO)C3=O)cc1	x	1.2
51	CC(C)NC(=O)N(C)C[C@H]1Oc2ccc(NC(=O)C3CCCCC3)cc2C(=O)N([C@H](C)CO)C[C@H]1C	0.2	-5.2
60	O=C(C1CC1)N1N=C(C2CCCCC2)CC1(O)C(F)(F)F (stereo not given)	0.3	1.9
45	CC1(C)CCc2cc(-c3ccnc(=S)[nH]3)ccc2O1	-0.9	-3.7
41	C=CCNC(=O)c1cc2ccccc2o1	-3.5	-0.9

# Further entries follow.
No.	SMILES	A1 inhib	BJeLR viab HTS
61	C[C@@H]1CN([C@H](C)CO)C(=O)c2cccc(NC(=O)C3CC3)c2O[C@@H]1CN(C)C	x	-1.6
62	C[C@H]1CN([C@@H](C)CO)C(=O)c2cccc(NS(=O)(=O)c3cn(C)cn3)c2O[C@H]1CN(C)Cc1ccc(-c2ccccc2)cc1	x	-0.6
63	C[C@@H]1CN([C@H](C)CO)C(=O)c2cc(NS(=O)(=O)c3cccs3)ccc2O[C@H]1CN(C)Cc1ccc(C(=O)O)cc1	0.3	7.3
64	C[C@@H]1CN([C@@H](C)CO)C(=O)c2cccc(NS(=O)(=O)c3cccs3)c2O[C@H]1CN(C)C(=O)NC1CCCCC1	x	-0.6
65	CCc1ccc(NC(=O)N2CCC(N(C)C(C)C)CC2)cc1	1.0	7.9
66	CC(NS(=O)(=O)c1ccc(C(C)(C)C)cc1)C1C2CC3CC(C2)CC1C3 (stereo not given)	0.3	-2.1
67	COc1ccc(SCC(=O)NCc2ccc3c(c2)OCO3)cc1	x	2.5
68	C[C@@H]1CN([C@@H](C)CO)C(=O)c2cccc(NS(C)(=O)=O)c2O[C@@H]1CN(C)Cc1ccccc1	x	2.7
69	CSc1ccccc1C(=O)Nc1cccc(C(C)O)c1 (stereo not given)	1.1	-1.3
70	COc1ccc(NC(=O)N(C)C[C@H]2Oc3ccc(NC(=O)C4CCCCC4)cc3C(=O)N([C@H](C)CO)C[C@H]2C)cc1	0.2	1.3
71	C[C@H](CO)N1C[C@H](C)[C@H](CN(C)CC2CCCCC2)Oc2c(NC(=O)Nc3cccc4ccccc34)cccc2C1=O	x	0.5
72	C[C@@H]1CN([C@@H](C)CO)C(=O)c2cccc(NC(=O)C3CCOCC3)c2O[C@@H]1CN(C)Cc1ccc(C(F)(F)F)cc1	x	0.1
73	O=C(NCc1ccco1)c1ccc(COCC(F)(F)F)cc1	x	0.6
74	CNC[C@@H]1Oc2c(NS(=O)(=O)c3ccccc3)cccc2C(=O)N([C@H](C)CO)C[C@@H]1C	x	4.0
75	C=CCn1cc(C=C2C(=O)OC3(CCCC3)OC2=O)c2ccccc21	-0.1	2.7
76	O=C(c1cccc2ccccc12)N(C1CCCC1)C1CCCC1	0.9	-3.8
77	Cc1ccc2ncc(-c3ccc4cc(C)ccc4n3)cc2c1	-5.6	-1.9
78	C[C@H]1CN([C@@H](C)CO)C(=O)c2cc(NC(=O)CCCN(C)C)ccc2O[C@H]1CN(C)Cc1ccccc1	-0.1	-6.0
79	Cc1cc2nnc(SCc3ccc(Cl)cc3)n2c2ccccc12	-0.1	-5.9
80	C[C@H]1CN([C@@H](C)CO)C(=O)c2cc(NC(=O)Cn3cnnn3)ccc2O[C@@H]1CN(C)S(=O)(=O)c1cccs1	-0.6	2.1
81	COc1ccc(CN(C)C[C@@H]2Oc3ccc(NC(=O)CCC(F)(F)F)cc3C(=O)N([C@@H](C)CO)C[C@H]2C)cc1	-0.2	2.6
82	C[C@@H]1CN([C@H](C)CO)C(=O)c2cc(NC(=O)C3CC3)ccc2O[C@@H]1CN(C)S(=O)(=O)c1cccs1	-0.7	11
83	C[C@H]1CN([C@@H](C)CO)C(=O)c2cccc(NC(=O)C3CC3)c2O[C@@H]1CN(C)Cc1ccc(C(F)(F)F)cc1	x	-4.7
84	COc1ccc(S(=O)(=O)Nc2cccc3c2O[C@H](CN(C)S(=O)(=O)c2ccc(F)cc2)[C@@H](C)CN([C@H](C)CO)C3=O)cc1	x	5.5
85	C[C@@H]1CN([C@@H](C)CO)C(=O)c2cc(NS(C)(=O)=O)ccc2O[C@H]1CN(C)Cc1ccc(Cl)c(Cl)c1	1.1	-2.6
86	COc1ccc(S(=O)(=O)Nc2ccc3c(c2)C(=O)N([C@@H](C)CO)C[C@@H](C)[C@H](CN(C)Cc2ccc(C(=O)Nc4ccccc4N)cc2)O3)cc1	x	0.6
87	Cc1noc(C)c1-c1nc(CN2C(=O)c3ccccc3S2(=O)=O)no1	0.2	-2.6
88	C[C@H](CO)N1C[C@H](C)[C@@H](CN(C)S(=O)(=O)c2ccccc2)Oc2ccc(NS(=O)(=O)c3ccc(F)cc3)cc2C1=O	-0.2	-0.8
89	FC(F)(F)COc1ccc(-c2nc(-c3ccc(Cl)cc3)cs2)cn1	-0.2	0.6
